HIV TAR-Tat – TAR RNA-Tat peptide displacers, HIV-1, primary screen, biochemical, FRET, FAM/TAMRA-labeled Tat. HIV-1 TAR RNA, Tat peptide displacement FRET; active compounds read high. z-score (no concentration beside the values). 0.6% of 100,000 active. AID 1259389, 2018;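 further: score is relative to mean and SD of negative controls; some compounds called inactive have numbers as strong as hits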
CDC25B CDK2 inh – primary biochemical HTRF screen for blockers of M-phase inducer phosphatase 2 binding to CDK2/cyclin A. 0.72% of 94,000 active. HTRF CDC25B-CDK2/CyclinA binding, anti-His/anti-Flag; active compounds read high. AID 1259370, 2018. z-score (concentration not given with the values);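 further: score is relative to mean and SD of negative controls; strong numbers were not always called active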
Active calls of the source: *; . = not tested or not shown.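 How the source made its calls: active means z-score from 3 up in half or more of its runs; inactive means the rest.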

SMILES	HIV TAR-Tat	CDC25B CDK2 inh
Cc1c(C)n(-c2ccc(F)cc2)c2ncn3nc(-c4cccs4)nc3c12	0.66	-0.33
O=S(=O)(Cc1ccccc1)NCc1cccn1Cc1ccc(Cl)cc1	1.8	.
CC(C)Oc1ccccc1C1NC(=O)CCC1[N+](=O)[O-] (centres undefined)	0.9	-0.39
CCOC(=O)c1c(C)c(C(=O)N2CCN(C(=O)c3ccco3)CC2)c(C)n1C	.	-1.6
CCCCCCCn1c(CN2CCN(C(=O)c3ccco3)CC2)nc2c1c(=O)n(C)c(=O)n2C	-1.6	-1.4
S=C(NCCc1ccccn1)Nc1ccccc1	.	0.04
Cc1ccc(Oc2ncnc3sc(C)cc23)cc1	1.9	.
Nc1c(-c2ccccc2)nc2sc(N3CCCC3)nn12	-0.83	.
O=C(Cn1nc(C(=O)N2CCc3ccccc32)ccc1=O)Nc1nccs1	1.2	.
c1ccc(CCN2CN(CCN3CCOCC3)c3nc4ccccc4n3C2)cc1	1.4	-1.5
CN(c1ccc(Cl)cc1)S(=O)(=O)c1nnc(NC(=O)c2ccco2)s1	2.1	-1.3
CCOC(=O)C1CCN(c2nn3c(C)nnc3c3ccccc23)CC1	-0.79	-1.7
O=C(Nc1ccc2nc3n(c(=O)c2c1)CCCC3)c1ccc([N+](=O)[O-])o1	0.86	-1.4
CCCCOC(=O)Nc1nccs1	2.1	1.7
C=C(/C(C)=N/O)c1ccccc1	.	-0.04
CC(C)CCNC(=O)C1CCCN(S(=O)(=O)N2CC(C)CC(C)C2)C1 (centres undefined)	2.2	.
O=C(NCCCN1CCN(Cc2ccccc2)CC1)c1cccs1	.	-1.6
CCC(C)NC(=O)C1CCCN(c2nnc(N3CCCC3=O)s2)C1 (centres undefined)	2.8	0.96
Cc1ccccc1CN1C(=O)C(=O)c2cc(Cl)ccc21	0	-0.21
O=C1CCCc2c1cc(-c1ccccc1)n2-c1ccc(O)cc1	0.47	-0.66
CC(C)CCN1C(=O)c2cc(-c3ccco3)nn2CC1(C)C(=O)NC1CCCCC1 (centres undefined)	0.99	.
CC(=O)Nc1ccc(OC(=O)c2ccc(Br)o2)cc1	.	0.22
Cc1ccc(-n2nnc(-c3nc(-c4ccccc4Cl)no3)c2N)c(C)c1	-0.99	.
Cn1nc(C(=O)N2CCCC2)c2c1-c1ccsc1CC2	0.64	.
COc1ccc(NC(=O)N2CCN(c3nc4cc(F)ccc4n4cccc34)CC2)cc1	1.3	.
C#CCOc1cc(C2CC(=O)Nc3c2c(C)nn3-c2nncc(-c3ccc(OC)cc3)n2)ccc1OC (centres undefined)	1.5	.
O=C1CCSc2ccc(S(=O)(=O)N3CC=C(c4ccccc4)CC3)cc2N1	2	.
COc1ccc(C(=O)c2oc3ccccc3c2N)cc1OC	1.8	-2.7
CCN1C(=O)C(O)(CC(=O)c2cccnc2)c2ccccc21 (centres undefined)	1.6	-4
CCCC1c2cccn2CCN1C(=O)Nc1ccsc1C(=O)OC (centres undefined)	-1.7	.
O=C1c2ccccc2-c2onc3c(N4CCN(c5ccc(F)cc5)CC4)cc(NCc4ccco4)c1c23	-0.21	-1.7
CC1CCc2c(sc3nnn(CC(=O)OC(C)C)c(=O)c23)C1 (centres undefined)	-0.71	-1.2
O=C1C2N=NN(Cc3ccc(F)cc3Cl)C2C(=O)N1c1ccc(F)cc1 (centres undefined)	3	-1.5
Cc1ccc(Cn2c(C3CCCO3)nc3ccccc32)cc1 (centres undefined)	1.1	-1.6
CCn1nccc1C(=O)Nc1nccs1	0.01	-2.8
CC(=O)NCCNC(=O)c1ccc2c(=O)[nH]c3c(C(=O)NC4CCCC4)sc(=S)n3c2c1	16	.
Cc1csc(NC(=O)c2nn(C)c3c2COc2ccccc2-3)n1	1.5	0.57
COc1cn(CC(=O)NCC2CCCO2)c(CSc2nc(C)cc(C)n2)cc1=O (centres undefined)	0.29	.
Cc1cc(NC(=O)CSc2cn(CC(=O)N(C(C)C)C(C)C)c3ccccc23)no1	-1.1	.
N/C(=N/OC(=O)c1ccno1)c1ccc(C(F)(F)F)cc1	.	-1
COC(=O)c1ccc(Cn2nc(C)c(Cl)c2C)o1	0.65	-1.7
CSc1ncc(C(=O)Nc2ccc3c(c2)OCCO3)c(C(F)(F)F)n1	1.4	.
Oc1ccccc1C1Nc2ccccc2-c2nc3ccccc3n21 (centres undefined)	-0.52	0.39
O=C(CN1C(=O)CCS(=O)(=O)c2ccccc21)NCC1CCCO1 (centres undefined)	0.65	3.1
CN1CCc2c(sc(-n3cccc3)c2CNC(=O)Nc2ccccc2Cl)C1	-7.2	.
CC(=O)Oc1ccc2c(=O)oc(COc3ccc(C)c(C)c3)nc2c1	1.9	1.1
CC(=O)Nc1nc(-c2cccnc2)cs1	.	-1.9
CC1=C(C(=O)NCCCN(C)C2CCCCC2)C2(CCN(S(C)(=O)=O)CC2)OC1=O	0.54	.
Cc1nc(C(=O)O/N=C(\N)c2c(-c3c(Cl)cccc3Cl)noc2C)cs1	.	-1.5
CSc1ccc(C2Nc3ccccc3-c3cc(C)nn32)cc1 (centres undefined)	1.1	-0.46
C=CCn1c(NCc2cc(C)ccc2O)nc2ccccc21	-0.37	-1.8
Cc1ccc2nc(-n3nc(C)c4c3NC(=O)CC4c3ccc(Cl)cc3)sc2c1 (centres undefined)	1	.
Cc1nc2ncnn2c(C)c1CCC(=O)Oc1ccccc1	-1.8	-0.53
CCC(C)(C)N=C(NC#N)Nc1cccnc1	1.7	.
Cc1ccc2oc(-c3ccc(N)cc3O)nc2c1	0.81	-1.4
CCN(CC)c1nnc(-n2cccc2CN2CCN(c3ccccn3)CC2)s1	1.8	.
Fc1ccc(-c2nn3cnnc3s2)cc1	-1.6	-0.89
Cc1ccc2c(=O)c(CN3CCCCC3C)c(C)[nH]c2c1C (centres undefined)	0.57	-0.5
O=C(CN1C(=O)C2C3C=CC(C3)C2C1=O)NCC1COc2ccccc2O1 (centres undefined)	.	-0.86
CCCC12CN(C(=O)c3ccco3)CC(CCC)(CN(C(=O)c3ccco3)C1)C2=O	1.7	-0.08

At a glance, part of the list above:
SMILES	HIV TAR-Tat	CDC25B CDK2 inh
CN1CCc2c(sc(-n3cccc3)c2CNC(=O)Nc2ccccc2Cl)C1	-7.2	.
CC(=O)Oc1ccc2c(=O)oc(COc3ccc(C)c(C)c3)nc2c1	1.9	1.1
CC(=O)Nc1nc(-c2cccnc2)cs1	.	-1.9
CC1=C(C(=O)NCCCN(C)C2CCCCC2)C2(CCN(S(C)(=O)=O)CC2)OC1=O	0.54	.
Cc1nc(C(=O)O/N=C(\N)c2c(-c3c(Cl)cccc3Cl)noc2C)cs1	.	-1.5
CSc1ccc(C2Nc3ccccc3-c3cc(C)nn32)cc1 (centres undefined)	1.1	-0.46
C=CCn1c(NCc2cc(C)ccc2O)nc2ccccc21	-0.37	-1.8
Cc1ccc2nc(-n3nc(C)c4c3NC(=O)CC4c3ccc(Cl)cc3)sc2c1 (centres undefined)	1	.
Cc1nc2ncnn2c(C)c1CCC(=O)Oc1ccccc1	-1.8	-0.53
CCC(C)(C)N=C(NC#N)Nc1cccnc1	1.7	.
Cc1ccc2oc(-c3ccc(N)cc3O)nc2c1	0.81	-1.4
CCN(CC)c1nnc(-n2cccc2CN2CCN(c3ccccn3)CC2)s1	1.8	.
Fc1ccc(-c2nn3cnnc3s2)cc1	-1.6	-0.89
Cc1ccc2c(=O)c(CN3CCCCC3C)c(C)[nH]c2c1C (centres undefined)	0.57	-0.5
O=C(CN1C(=O)C2C3C=CC(C3)C2C1=O)NCC1COc2ccccc2O1 (centres undefined)	.	-0.86

New compounds follow:
SMILES	HIV TAR-Tat	CDC25B CDK2 inh
CC1CCCCN1C(=O)Cn1cc(C(=O)c2ccco2)c2ccccc21 (centres undefined)	0.72	-1.4
O=C(Cn1ncc2c([nH]c3ccccc32)c1=O)N1CCc2ccccc21	2.1	.
COc1ccc(NC(=O)c2noc3c2CSc2ccccc2-3)cc1Cl	0.59	-1.1
CCOC(=O)C1=C(N)OC2=C(C(=O)CC(C)(C)C2)C1c1ccc(CC)s1 (centres undefined)	.	-1.5
COc1ccc(NCc2cnc(N(C)C)nc2)cc1	2.1	.
COC(=O)C1=C(N)OC2=C(C(=O)CC(C)(C)C2)C1c1ccc2c(c1)OCO2 (centres undefined)	.	-2.1
COc1ccccc1N1CCN(c2ncnc3c2nnn3C)CC1	1.7	.
CCOC(=O)c1cc2n(c1N)-c1ccccc1C2=O	-1.1	-2.5
O=C1c2cc(S(=O)(=O)Oc3ccccc3)ccc2-c2ccc(S(=O)(=O)Oc3ccccc3)cc21	.	0.64
NC(N)=N/N=C\c1c(Cl)cccc1Cl	1.4	.
NCCc1nnc(SCc2ccc(Br)cc2)o1	1.6	1.4
COc1cc(CCC(=O)NCc2ccco2)on1	1.2	-2.2
Cc1cccc(-c2cc(Nc3ccc(C)c(C)c3)nc(C)n2)c1	0.39	1.1
Cc1c(C(=O)N2CCCC2)c(S(=O)(=O)N2CCOCC2)c(C)n1C	0.46	.
CSc1nsc(SCC(=O)N2CCCc3ccccc32)n1	-0.66	-1.9
CC(C)c1cc(C(C)C)c(S(=O)(=O)NCc2cccnc2)c(C(C)C)c1	1.2	0.76
Cc1cccc(C2N(c3cccc(Cl)c3)C(=O)C3CCCN32)c1 (centres undefined)	0.26	-0.97
COC(=O)c1scc(C#N)c1N/N=C(\C#N)S(=O)(=O)c1cccs1	.	-1.4
CCOC(=O)c1nc(Nc2ccccc2OCC)c2c(C)noc2n1	1	.
Brc1ccc(-c2cn3nc(C4CC4)sc3n2)cc1	1.4	-0.7
COCc1cc(=O)oc2cc(NS(C)(=O)=O)ccc12	.	-1.5
COC(=O)CCCCCCCC(=O)Nc1ccc(Cl)cc1	.	-1.8
Cc1cccc(N2C(=O)CC(Sc3ncn[nH]3)C2=O)c1 (centres undefined)	0.94	-0.91
CN1CCN(C(=O)c2ccc(-n3ccc4ccccc43)s2)CC1	0.52	.
Nc1ccc(C(=O)OCCCc2nc3cc4ccccc4cc3[nH]2)cc1	.	-1.5
CCCC(CCC)C(=O)Nc1noc2ccccc12	1.1	0.85
CCO/C=C(\C#N)S(=O)(=O)c1ccc(Cl)cc1	.	-1.4
CSc1ncc2c(=O)n(-c3ccc(C)cc3C)c(=O)[nH]c2n1	1.1	.
Cc1[nH]nc2c1C(C1CCCCC1)C(C#N)=C(N)O2 (centres undefined)	.	0.62
CC1(C)CC(=O)C2=C(C1)NC(=O)CC2C(=O)Nc1ccc(F)c(Cl)c1 (centres undefined)	0	0.09
CSc1nc(C(N)=O)c(N)s1	.	-1.1
c1ccc(-c2nc3ccccc3nc2-c2ccsc2)cc1	1.4	-2.3
Cc1nc2nc(Cc3ccccc3)[nH]n2c(=O)c1Cc1ccccc1	2.8	-1.6
Cc1ccc(S(=O)(=O)/C=C/c2ccc([N+](=O)[O-])o2)cc1	.	-1.2
CC(C)CCn1c(CN2CCC(C)CC2)nc2c1c(=O)n(C)c(=O)n2C	.	-1.1
CCOC(=O)c1cnc(SCc2ccc(Cl)cc2)nc1N	1.3	.
COc1ccc(OC)c(S(=O)(=O)n2nc(C)c(S(=O)(=O)N3CCCC3)c2C)c1	1.4	.
Cc1ccnc(SCCn2c(N3CCOCC3)nc3c2c(=O)n(C)c(=O)n3C)n1	.	0.71
COc1ccc2c(c1)c(C(=O)CN(C)C)c(C)n2C	-0.04	-2.3
COc1ccccc1N1CCN(C(c2cccs2)C(C)NS(=O)(=O)c2ccccc2)CC1 (centres undefined)	.	-1.3
CC1CCN(C(=O)c2cc(S(=O)(=O)N3CCCCC3)c[nH]2)CC1	4.3	.
O=C(CCCn1c(=O)c2cccn2c2ccc(F)cc21)NCCC1=CCCCC1	1.2	.
CC(C)(C)C1CCc2c(sc(NC(=O)c3cccs3)c2C(=O)NCc2ccco2)C1 (centres undefined)	.	-0.36
Cn1c(=O)oc2cc(S(=O)(=O)N3CCC(C(=O)N4CCN(c5ncccn5)CC4)CC3)ccc21	.	0.03
Cc1cc(C)n2c(SCc3ccc(Br)cc3)nnc2n1	0.81	-1.4
CCOC(=O)C1CCC(CNC(=O)Nc2nnc(N(C)C3CCCCC3)s2)CC1 (centres undefined)	1.4	-0.12
CC(=O)N1c2c(cc(Br)cc2S(=O)(=O)N2CCN(c3ccccc3F)CC2)CC1C (centres undefined)	-0.56	-1
Cc1cc(Nc2ccc(C(N)=O)cc2)nc(-n2cc([N+](=O)[O-])cn2)n1	2.4	.
CC(C)c1ccc(C2C3=C(CCCC3=O)Nc3c2c(=O)n(C)c(=O)n3C)cc1 (centres undefined)	0.34	-3.6
O=C(O)CNC(=O)Cn1cnc2ccccc2c1=O	2	-1.8
O=C(NCc1ccc2c(c1)OCO2)c1ccc(Cn2c(=O)c3cccn3c3cccnc32)cc1	-0.57	.
COc1ccc(S(=O)(=O)N2c3cc(F)ccc3CCC2C)cc1OC (centres undefined)	1.1	-2.1
COc1ccc(-c2cc(C(F)(F)F)nc(SCC(=O)N(C)Cc3cnn(C)c3)n2)cc1OC	-1.4	-1.9
Cc1cn2c(=O)c(S(=O)(=O)N3CCN(c4ccccc4F)CC3)c(C)nc2s1	0.04	.
Cc1ccc(-c2nc(SC(C)C(=O)Nc3ccc(C)cc3C)[nH]c(=O)c2C#N)cc1 (centres undefined)	-0.99	0.13
Cn1c(=O)[nH]c(=O)c2c1nc(NCCCn1ccnc1)n2CCCc1ccccc1	0.41	-0.98
O=C(CCc1cc(Cl)no1)Nc1nccs1	1.3	-0.65
CCCCC12CN3CC(C)(CN(C1)C3c1ccc(O)cc1O)C2=O (centres undefined)	0.97	1

In a second layout: entries from further up
molecule | HIV TAR-Tat | CDC25B CDK2 inh
CC(C)c1ccc(C2C3=C(CCCC3=O)Nc3c2c(=O)n(C)c(=O)n3C)cc1 (centres undefined) | 0.34 | -3.6
O=C(O)CNC(=O)Cn1cnc2ccccc2c1=O | 2 | -1.8
